BasE inh: inhibitors of Acinetobacter baumannii siderophore enzyme BasE. purified BasE, fluorescence polarization binding displacement. inhibition, % (concentration not given with the values). hit rate 0.1% among 84,000. AID 485350;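 active = both replicates above 25% with normal brightness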;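 also: 0% = negative plate control signal and 100% = positive plate control signal; stock transfer was 100 nL into about 30 µL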
KSHV LANA nucl: inhibitors of KSHV LANA binding to nucleosomes | hit rate 0.3% among 51,000 | AID 720717 | FITC-LANA1-23 / chicken nucleosome fluorescence polarization; stronger effect = lower value | z-score (concentration not given with the values);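 active = both repeat wells score below -2 in polarization z-score versus plate sample wells, excluding overly bright wells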;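 also: 100 nL library stock added to about 30 µL; numbers are from one replicate; some results filed as inactive read as strong as hits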
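Material: Purified chicken nucleosomes with FITC-labelled LANA N-terminal peptide (1-23) | Reagent: 50 nM FITC-LANA1-23 probe | Medium: TEN-BT buffer, pH 7.5 | Times: 10–45 min incubation at room temperature | Detection: Fluorescence polarization | Replication: Duplicates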
Active calls of the source: *; . = no result given; & = joins results of further samples.

Sequence of screens: BasE inh, KSHV LANA nucl
CC(NC(=O)CSc1nccc(=O)[nH]1)C1CC2CCC1C2 (stereo not given)
 : -0.1, .
N#C/C(=C(/O)CN1CCN(Cc2ccccc2)CC1)c1nc(-c2ccccc2)cs1
 : 0.8, .
CC(NC(=O)Cn1c(CCCO)nc2ccccc21)C1CC2CCC1C2 (stereo not given)
 : 0.0, .
COc1cc(C2C3=C(CC(C)(C)CC3=O)N(C)C(=O)N2C)cc(OC)c1OC (stereo not given)
 : 3.8, .
C=CCn1c(N)cc(=O)nc1SCC(=O)NC1CCCCC1
 : -2.9, 2.49
CCCn1nc(C(=O)Nc2ccc(S(=O)(=O)N(C)C)cc2)c2ccccc2c1=O
 : 1.9, .
NC(=O)COc1ncn(-c2ccccc2)n1
 : ., -0.298
Cc1csc(=O)n1CCC(=O)OCc1ccc(C#N)cc1
 : -1.0, .
Cc1noc(NC(=O)NC(=O)c2cc(F)c(N(C)C)c(F)c2)c1C
 : 2.7, -0.161
COc1ccc2[nH]c(=O)c(CNCc3ccccc3)cc2c1
 : -1.7, 1.03
CN1CCN(C(=O)CCN2C(=O)/C(=C/c3ccc(Cl)cc3)SC2=S)CC1
 : -0.7, .
CCOC(=O)c1[nH]c(CO/N=C/C(=O)Nc2ccc3c(c2)OCCO3)c(C(=O)OCC)c1C
 : -1.0, .
Cc1ccc(NC(=O)Cc2c(C)nc3ncnn3c2C)cc1
 : 1.3, .
COC(=O)CN1C(=O)C(C)(C)Oc2ccc(C(=O)Nc3cccc(OC)c3)cc21
 : -0.8, -0.873
c1ccc(Cn2nnnc2SCc2ccc(CSc3nnnn3Cc3ccccc3)cc2)cc1
 : -2.0, -0.273
c1ccc(-n2nnnc2Sc2nc(C3CC3)n(-c3ccccc3)n2)cc1
 : 1.2, .
CCC(O)c1cc2c(cc1NC(=O)c1cccs1)OCCO2 (stereo not given)
 : 0.8, 0.243
COC(=O)c1ccc(NC(=O)C(C(C)C)N2C(=O)c3ccccc3C2=O)cc1 (stereo not given)
 : 1.3, -0.871
O=C(CN1C(=O)S/C(=C\c2cccs2)C1=O)N1CCCC1
 : 0.3, .
O=C(Nc1ccc(-n2cccc2)cc1)c1ccc(Cl)cc1
 : ., 0.218
Cc1cc(=O)oc2c3c(ccc12)OCN(C(C)(C)C)C3
 : 1.2, 0.116
Cc1ccc(OC(=O)OCSc2nn[nH]n2)cc1
 : 0.6, .
O=C(OCCN1C(=O)c2ccccc2C1=O)C1CCCCN1S(=O)(=O)c1ccccc1 (stereo not given)
 : -0.6, .
COc1ccc(C2c3sc(=O)[nH]c3SC3C(=O)N(CC(=O)O)C(=O)C32)cc1 (stereo not given)
 : -0.2, .
Cc1cc(N=Cc2c(O)n(-c3ccc(C(C)C)cc3)c(=O)c3ccccc23)n[nH]1
 : 0.7, .
Cc1c(=O)n(OCc2ccc(Cl)cc2)c2ccccc2[n+]1[O-]
 : 0.3, 0.867
CN(C)c1ccc(/C=C(\C#N)S(=O)(=O)c2ccccc2)cc1C#N
 : 1.5, .
O=C(c1ccccc1)c1nn(-c2ccc(Cl)cc2)ccc1=O
 : 0.5, .
Cc1cc(=O)oc(C)c1C(=O)Nc1ccccc1C(=O)N1CCCCC1
 : 3.3, .
CC1CCCCN1CCC(=O)O (stereo not given)
 : 2.9, -0.45
O=C(CN1CCN(S(=O)(=O)c2ccccc2)CC1)Nc1cccc(C(F)(F)F)c1
 : 1.3, .
O=C(O)c1cccnc1SC1CC(=O)N(c2ccc(Cl)cc2)C1=O (stereo not given)
 : 2.3, -0.004
CC1=C(C(=O)OC2CCCC2)C(c2ccc(C)o2)C2=C(CCCC2=O)N1 (stereo not given)
 : 2.5, -0.513
CCCOc1ccc(N2C(=O)CC(SCC(=O)O)C2=O)cc1 (stereo not given)
 : -2.1, 0.786
O=C(Cn1nnc(-c2ccccc2)n1)C12CC3CC(CC(C3)C1)C2
 : 0.7, .
CCOC(=O)N1CCN(Cc2nc(N)nc(Nc3ccc(C)cc3)n2)CC1
 : -2.0, 0.921
CCN(CC(=O)Nc1cccc(OC)c1)CC(=O)Nc1ccccc1C
 : 0.9, .
O=C1c2ccccc2C(=O)N1/N=C/c1ccc(O)c(O)c1
 : 10.8, 0.32
CC1(C)Cc2ccccc2-c2nc3[nH][nH]c(=S)n3c(=O)c21
 : 6.7, 0.146
O=C(C1COc2ccccc2O1)N1CCCc2ccccc21 (stereo not given)
 : -0.3, -1.14
O=C1NC2(CCCCC2)C(=O)N1CCN1C(=O)c2ccccc2C1=O
 : 1.5, .
C=CCSc1nnc(NC(=O)/C=C/c2c(Cl)nc3sccn23)s1
 : 2.7, .
COc1cc2c(cc1NS(=O)(=O)N1CCCCC1)oc1ccccc12
 : 0.8, -0.279
Cc1nc(N)[nH]c(=O)c1CCC(C)C
 : 0.2, .
O=c1c2c(-c3cccs3)csc2[nH]c(=S)n1CCc1ccccc1
 : 1.2, .
Cc1cc(C)c2[nH]c(=O)c(CNCC3CCCO3)cc2c1 (stereo not given)
 : 0.1, -0.247
CCSc1nc2c(c(=O)n1CC)SCC2
 : -1.4, 0.0685
Cc1noc(C)c1C(=O)OCC(=O)C12CC3CC(CC(C3)C1)C2
 : -2.5, .
CC12CN(NC=O)C3(C#N)CC1CCC23C (stereo not given)
 : -3.4, 0.334
c1ccc(CCN2CN=C(Nc3nc4ccccc4s3)NC2)cc1
 : 2.0, -0.508

Next entries
Sequence of screens: BasE inh, KSHV LANA nucl
Nc1nonc1-n1nnc(C(=O)O)c1-c1cccc2ccccc12
 : -0.9, -0.336
CCCc1cc(=O)oc2cc(OC(=O)/C=C/c3cccs3)ccc12
 : -1.5, .
O=C1CC(c2ccccc2)Oc2ccc(F)cc21 (stereo not given)
 : -1.7, -0.314
O=C(Nc1ccc(OC(F)(F)F)cc1)OC1CN(C(c2ccccc2)c2ccccc2)C1
 : -1.5, .
CC1Oc2ccccc2C=C1/C=C(\C#N)C(=O)NC1CCS(=O)(=O)C1 (stereo not given)
 : -2.0, 0.257
C[N+](C)(CCOc1ccccc1)Cc1ccccc1
 : ., -0.698
O=C(O)c1ccc(CSc2nnc(-c3ccncc3)n2CC2CCCO2)cc1 (stereo not given)
 : 0.3, -0.068
NCc1ccc(CN2CCCC2)cc1
 : -3.5, -0.392
O=C(CCCSc1nnc(-c2ccc3c(c2)OCO3)o1)c1cccs1
 : 3.2, .
Cc1cc(O)c(C=O)c2c1C(=O)Oc1c(C)c(O)c3c(c1O2)C(O)OC3=O (stereo not given)
 : -1.4, 1.82
Cc1cc(C)c2[nH]c(=O)c(CN(Cc3ccco3)C(=S)NCCCN3CCOCC3)cc2c1
 : -2.4, 0.395
O=C(O)c1ccccc1C(=O)N1CCN(c2ccncc2)CC1
 : 1.9, -0.909
Cc1ccc(CNC(=O)c2ccc(Cn3c(=O)[nH]c4ccccc4c3=O)cc2)o1
 : -0.2, 5.33
COc1ccc2oc(=O)cc(CN(C)CCC#N)c2c1
 : 3.7, 0.217
CSc1n[nH]c2nc3c(c(=O)n12)C1(CCCC1)Cc1ccccc1-3
 : 1.1, -0.0895
Cn1c(Cc2nn(C)c(=O)c3ccccc23)nnc1SCC(=O)c1ccc(Cl)cc1Cl
 : -1.2, .
O=c1c(Cl)c(Cl)cnn1C1CCS(=O)(=O)C1 (stereo not given)
 : -0.5, .
CCOC(=O)N1CCC(=NNC(=O)COc2ccc(C)cc2C(C)C)CC1
 : -1.8, .
CCOC(=O)N1CCN(C(=O)c2cc3c(ccc4ccccc43)oc2=O)CC1
 : 1.3, .
CCCCCCOc1ccccc1C(N)=O
 : 1.5, -0.508
CCCCC/C=C\CC1OC1CCCCCCCC(=O)O (stereo not given)
 : -0.1, 0.11
COC(=O)CNC(=O)NC12CC3CC(CC(C3)C1)C2
 : -0.6, 1.24
O=C(NC(=S)Nc1ccc2c(c1)OCO2)c1ccccc1
 : 1.6, 0.206
COc1cccc(-c2noc(COC(=O)c3ccccc3-c3ccccc3C#N)n2)c1
 : 1.1, .
CN(C)C(=O)CSc1ncnc2sc3c(c12)CCCC3
 : -1.6, .
CCN(CC(=O)c1c(N)n(Cc2ccccc2)c(=O)n(CC)c1=O)Cc1nc2ccccc2c(=O)[nH]1
 : 1.3, .
O=C(CSc1nnc2c3c4c(sc3ncn12)CCCC4)Nc1nccs1
 : 1.4, 0.115
CCN(C(=O)c1cc2cccc(OC)c2oc1=O)C1CCCCC1
 : 1.3, -1.18
CC1(C)COC(c2sccc2C(=O)O)=N1
 : 0.7, .
CC1CN(C(=O)/C=C/c2ccc3c(c2)OCO3)CC(C)O1 (stereo not given)
 : 1.4, 0.318
O=C(NCCCO)c1ccncc1
 : 3.4, 0.371
CN(C)C(=O)C[n+]1ccc(/C=N/O)cc1
 : -0.2, .
Cn1cnnc1SCc1ccc(C(=O)N/N=C2\CCCc3ccccc32)cc1
 : 0.5, .
CCn1c(=O)n(Cc2ccco2)c(=O)c2sc3ccccc3c21
 : -2.1, -0.0245
Cc1ccc(C)c(NC(=O)OC(C)(C)C)c1
 : -4.3, 2.67
CC1=C(C(=O)Nc2cccc(C)n2)C(c2ccsc2)C2=C(CCCC2=O)N1 (stereo not given)
 : 0.0, .
O=C(CSc1ncn(-c2ccccc2)n1)NC1CCCCC1
 : 2.9, 0.955
O=C1OCCC1Sc1nnc(-c2cccs2)n1-c1ccccc1 (stereo not given)
 : 2.6, .
CCc1ccc(NC(=O)c2noc3c2CCc2ccccc2-3)cc1
 : 1.6, -0.44
CCN1CCN(C2CC(=O)N(CC)C2=O)CC1 (stereo not given)
 : 0.7, -0.265
O=c1[nH]c2ccccc2nc1/C=C(\O)c1ccccc1
 : 4.2, -0.814
NNC(=O)Cn1c2ccccc2c2ccccc21
 : -1.6, .
Cc1ccc(-n2c(C)cc(C(=O)CN3CCC(C)CC3)c2C)cc1
 : -1.1, 0.225
Cc1[nH]c2ccccc2c1C(=O)COC(=O)c1ccc2c(=O)n3c(nc2c1)CCC3
 : 0.7, .
COC(=O)c1ccc2c(c1)n(CCO)c(C)[n+]2CCO
 : 1.0, -0.129
O=S(=O)(c1ccc2ccccc2c1)N1CCCc2ccccc21
 : 0.9, .
Cc1cc(O)cc(=O)n1C
 : 0.5, 0.066
CCc1c(C)[nH]n(CCC#N)c1=O
 : 0.7, -1.05
Cc1noc(C)c1CC(=O)OCc1ccc(C#N)cc1
 : 0.2, .
Cc1ccc(-c2cc(C(=O)N3CCCC3)no2)cc1
 : 4.8, -0.284

Sorted by count of non-hydrogen atoms (high to low): some entries from above
Sequence of screens: BasE inh, KSHV LANA nucl
O=S(=O)(c1ccc2ccccc2c1)N1CCCc2ccccc21
 : 0.9, .
Cc1noc(C)c1CC(=O)OCc1ccc(C#N)cc1
 : 0.2, .
NNC(=O)Cn1c2ccccc2c2ccccc21
 : -1.6, .
CCc1c(C)[nH]n(CCC#N)c1=O
 : 0.7, -1.05

The listing continues:
Sequence of screens: BasE inh, KSHV LANA nucl
O=C(NC(=S)N1CCCCC1CO)C12CC3CC(CC(C3)C1)C2 (stereo not given)
 : -1.0, .
[O-]/[N+](Cc1ccccc1)=N\OCc1ccccc1
 : -0.2, -0.54
COC(=O)CCN1CCC(C(N)=O)CC1
 : 3.0, .
CC(NCCC(=O)O)c1ccccc1 (stereo not given)
 : 1.5, 1.79
C=CCNC(=O)CSc1nc(-c2ccco2)cc(C(F)(F)F)n1
 : 0.5, 0.274
CCN1C(=O)Cc2ccccc21
 : ., 1.2
COc1ccc(Cl)cc1-n1nnc(-c2nc(-c3ccc4c(c3)OCO4)no2)c1N
 : -3.1, 0.908
O=S(=O)(NCc1ccco1)c1cccc(-n2cnnn2)c1
 : 1.1, .
Cc1cccc(CSC2=NCCN2C(=O)C2CC2)c1
 : -0.6, -0.874
CCCn1c(C2CC(=O)N(c3ccc(CC)cc3)C2)nc2ccccc21 (stereo not given)
 : -1.2, .
CN(C(=O)Cn1c(=O)oc2ccccc21)c1ccccc1
 : 0.7, .
O=C(c1ccccc1)N(C(=O)N1CCCCC1)c1ccccc1
 : 0.1, 0.343
O=C(C[n+]1cccc(NC(=O)c2ccccc2)c1)c1ccccc1
 : 1.1, .
Cc1cc(C)cc(NC(=O)Nc2ccccc2C(=O)Nc2cc(C)cc(C)c2)c1
 : 3.6, .
N#CC(C(=O)Nc1cccc(C(F)(F)F)c1)=C1CCCCCC1
 : 1.6, .
O=C(Nc1ccc2c(c1)OCC(=O)N2Cc1ccccc1)c1ccco1
 : 3.1, -0.255
O=C(COc1ccc(Cl)cc1Cl)Nc1nnc(C2=COCCO2)o1
 : -0.7, 0.403
O=C(O)CCNC(=O)c1ccccc1
 : 2.3&-0.2, 0.0685&-0.0945

One compound at a time (already shown). Screens in order: BasE inh	KSHV LANA nucl
Shown for O=C(O)CCNC(=O)c1ccccc1 = 2.3&-0.2	0.0685&-0.0945
Shown for CN(C(=O)Cn1c(=O)oc2ccccc21)c1ccccc1 = 0.7	.
Shown for O=C(COc1ccc(Cl)cc1Cl)Nc1nnc(C2=COCCO2)o1 = -0.7	0.403

Compound activity from PubChem.

Only part of the results is shown; count on the stated rates, not on these rows.
